Prx2 Sm inh: Schistosoma mansoni Prx2 inhibition | S. mansoni Prx2 activity coupled to TGR/GSH (TGR is thioredoxin glutathione reductase), NADPH fluorescence loss, qHTS; some inactives read as strong as hits | Potency, µM | 65,000 tested, 0.07% active | AID 448; active means full or partial inhibition curve with a strong effect at the top dose; inconclusive means weaker partial or single-point curve; inactive means no accepted curve; also: series up to 57 µM; many of its hits are not listed in these tables
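Activity is read as the drop in NADPH fluorescence (365/450 nm), recorded every 30 sec for 8 min after H2O2 addition. Prx2 is coupled to TGR-driven NADPH oxidation through glutathione, in phosphate buffer pH 7.4.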
LT uptake inh: blocks cellular internalization of anthrax lethal toxin; Potency, µM (titrated, usually from 40 µM), without a hit: top-dose activity change, negative = inhibition, most hits filed as inhibitors; Cells, anthrax lethal toxin internalization, FRET ratio (460/530); 70,000 tested, 0.67% active; active = well fitted falling ratio curve with the 530 nm signal flat; inconclusive = other ratio curves, or a change in one channel alone; inactive = flat curves in the ratio and both channels; the % refers to the ratio; also: % is scaled to controls: 0 for no effect and ±100 for the full control effect; nearly all actives have a fitted effect of over 50% in size; tested in ME-180 cells; beta-lactamase reporter
Active calls of the source: *; ? = inconclusive; . = no result given; [ ] = dose if it differs, or a comment. Potency is read from the fitted curve at half-maximal effect. This is a subset, so the mix of outcomes need not match the whole.

Screens in order – Prx2 Sm inh	LT uptake inh
- O=C(O)CCn1c(=O)sc2ccccc21
    >57	-1.5%
- COc1ccccc1N1C(=O)CC(N2CCc3ccccc32)C1=O (centres undefined)
    >57	-2.9%
- Nc1ccccc1SCC(=O)N1CCc2ccccc21
    >57	-9.6%
- CCOC(=O)[C@H]1CCC[C@@H](NS(=O)(=O)c2ccc(NC(C)=O)cc2)C1
    >57	4.8%
- Cc1cccc(CS(=O)(=O)Cc2ccc(C(=O)NCCN3CCCCC3C)o2)c1 (centres undefined)
    >57	?
- Cc1cc(C)c(S(=O)(=O)Nc2ccc(O)cc2)cc1C
    >57	4.0%
- COc1ccc(S(=O)(=O)n2nc(OC(=O)c3ccc(C)cc3)cc2N)cc1
    >57	-12.4%
- Cc1ccc(CCC(=O)Nc2nccs2)o1
    .	-5.2%
- CCOC(=O)CSc1nc2cc(C(=O)N3CCC(C(N)=O)CC3)ccc2c(=O)n1-c1ccccc1
    >57	.
- COc1ccc(C(=O)NCCc2nnc(SCc3nc4ccccc4c(=O)[nH]3)n2C)cc1
    >57	9.3%
- COc1ccc(NC(=O)CN2CCC(C)CC2)cc1
    >57	-4.1%
- Cc1cc(C(=O)CSc2nnc(N)s2)c(C)n1CCc1ccc(Cl)cc1
    >57	-6.0%
- O=C(CN1CC(c2ccccc2)CC1=O)Nc1cccc(F)c1 (centres undefined)
    >57	2.5%
- Cc1nc2ccc(Br)cn2c1NC(C)(C)C
    >57	2.1%
- N#CCSC1=Nc2ccccc2C2=NC(CCC(=O)N3CCN(c4ccccc4)CC3)C(=O)N12 (centres undefined)
    >57	-11.7%
- O=C(Nc1nc(-c2ccc(S(=O)(=O)N3CCCC3)cc2)cs1)c1ccco1
    >57	.
- O=c1[nH]cc(COCc2ccccc2)c(=O)[nH]1
    >57	1.1%
- CCOC(=O)C1C(=O)CC(C)(O)C(C(=O)OCC)C1c1cc(Br)ccc1OC (centres undefined)
    >57	-17.0%
- COCC(=O)N(c1ccc(C(C)C)cc1)C1C=CS(=O)(=O)C1 (centres undefined)
    >57	-3.6%
- CCCCNC(=O)c1ccc(N2CCOCC2)c(NS(=O)(=O)c2ccc(OC)cc2)c1
    >57	-3.3%
- COc1ccccc1-n1c(SCC(=O)Nc2ccc(F)cc2)nc2c(c1=O)SCC2
    >57	10.3%
- CN(C)c1ccc(N(C)C)cc1
    .	3.0%
- CCCNC(=O)N1C2CCC1CC(O)(c1cccnc1)C2 (centres undefined)
    >57	-13.6%
- Cc1nnc(SCc2cnc(-c3ccccc3)o2)[nH]c1=O
    >57	16.3%
- C=CCNC(=O)c1ccncc1
    >57	-4.1%
- Cc1cc(C(C)(C)C)c(OCCCN2CCOCC2)c(C(C)(C)C)c1
    >57	-10.5%[8 µM]
- Clc1ccc(Cn2cc(/C=N/n3cnnc3)c3ccccc32)cc1
    >57	-19.5%
- COc1ncc2ncc(=O)n(C3CC3)c2n1
    >57	?
- Cc1cc(=O)n(CC(C)O)c(O)c1C#N (centres undefined)
    >57	-6.2%
- O=C(CN1CCOCC1)c1ccc2cc[nH]c2c1
    >57	29.8%
- Cc1nnc(SCC(=O)Nc2sc3c(c2C#N)CCCC3)[nH]c1=O
    .	8.0%
- Cc1ccc2c(c1)NC(=O)C(CC(=O)NCCCN1CCCC1=O)O2 (centres undefined)
    >57	2.2%
- C=CCn1c(C)cc(C(=O)COC(=O)C2CC(=O)N(Cc3ccccc3)C2)c1C (centres undefined)
    >57	-4.1%
- c1ccc(C2=Nn3c(nnc3-c3ccncc3)SC2)cc1
    >57	-5.9%
- O=C(CCn1nnc2ccccc2c1=O)N[C@@H](Cc1ccccc1)C(=O)O
    >57	?
- COc1cccc(-c2nc(CS(=O)(=O)CC(=O)NCCCN3CCc4ccccc4C3)c(C)o2)c1
    >57	-8.9%
- COc1ccc(N2C(=O)CC(N3CCCC4CCCCC43)C2=O)cc1 (centres undefined)
    .	8.6%
- COCc1nc(-c2ccc(-c3ccccc3)nc2OC)no1
    >57	-12.8%
- Cc1cccc(N(CC(N)=O)S(C)(=O)=O)c1C
    >57	8.7%
- C=CCNC(=O)c1cc(-c2ccccc2O)on1
    >57	-6.7%
- c1cc(CNc2ccc3c(c2)OCCO3)ccn1
    >57	?
- Cc1ccc(-c2c3c(=O)n(C)c(=O)n(C)c3cn2Cc2ccccn2)cc1
    >57	13.8%
- C[C@@H](C(=O)NCc1nc2ccccc2[nH]1)[C@@H]1C[C@@]1(C)[C@@H](NC(=O)OCc1ccccc1)c1ccccc1
    >57	?
- O=C(c1ccco1)N1CCN(c2cc(C(F)(F)F)nc3ncnn23)CC1
    >57	-11.6%
- CCCc1nnc(NC(=O)CCCC(=O)O)s1
    >57	-22.6%
- O=C(Nc1cccc(S(=O)(=O)c2cccc(NC(=O)C3CC3)c2)c1)C1CC1
    >57	6.5%
- Cc1ccc(-c2nn3c(C)nnc3s2)cc1NC(=O)c1ccco1
    >57	-10.9%
- CCc1n[nH]c(=O)n1Cn1c(CC)n[nH]c1=O
    >57	?
- Nc1cccc2c1C(=O)N(C(=O)c1ccc(S(=O)(=O)N3CCCCCC3)cc1)C2=O
    >57	?
- Cc1nnc(SCC(=O)Nc2ccccc2N2CCOCC2)s1
    >57	4.6%
- COC(=O)[C@H](Cc1ccccc1)NC(=O)Nc1ccc(S(N)(=O)=O)cc1
    >57	.
- Cc1ccnc(NS(=O)(=O)c2ccc(N=[N+]=[N-])cc2)n1
    >57	-1.6%[8 µM]
- CC(C)NC(=O)c1cnc(N2CCN(c3ccccn3)CC2)c2ccccc12
    >57	-7.0%
- NNC(=O)c1ccc(OCc2nc3ccccc3[nH]2)cc1
    >57	?
- COc1cc(OC)cc(N(C(=O)c2ccco2)C(C(=O)NC2CCCC2)c2ccc(N(C)C)cc2)c1 (centres undefined)
    >57	25.7%
- CCC(=O)N(Cc1cc2ccccc2[nH]c1=O)C(C)C
    >57	-11.8%
- Cc1cc(NC(=O)CCC(=O)N2CCC3(CC2)OCCO3)no1
    >57	-0.7%
- CCOc1ccc(OCC)c(NC(=O)CN2CCN(c3cccc(C)c3)C(C)C2)c1 (centres undefined)
    >57	-7.1%
- O=C(Nc1ccc2c(c1)OCO2)Oc1ccccc1
    >57	-14.5%
- COc1ccc(NC(=O)c2ccc(NS(=O)(=O)c3c(C)noc3C)cc2)cc1OC
    >57	5.6%

An excerpt from the list above, as a working copy:
Screens in order – Prx2 Sm inh	LT uptake inh
- c1ccc(C2=Nn3c(nnc3-c3ccncc3)SC2)cc1
    >57	-5.9%
- O=C(CCn1nnc2ccccc2c1=O)N[C@@H](Cc1ccccc1)C(=O)O
    >57	?
- COc1cccc(-c2nc(CS(=O)(=O)CC(=O)NCCCN3CCc4ccccc4C3)c(C)o2)c1
    >57	-8.9%

Other records
Screens in order – Prx2 Sm inh	LT uptake inh
- O=C(CC(C(=O)N1CCc2ccccc21)n1ccnc1)NCC1CCCO1 (centres undefined)
    >57	?
- COc1cccc(NC(=O)CCSc2nnc3scc(-c4ccccc4)n23)c1
    >57	19.0%
- Cc1cc(N2CCN(S(=O)(=O)c3ccc(Cl)cc3)CC2)c2ccccc2n1
    .	10µM*
- Cc1ccc(Cl)cc1N1CCN(C(=O)CN2C(=O)c3cccc4cccc2c34)CC1
    >57	-2.8%
- COc1cc(CC(=O)Nc2ccc(S(=O)(=O)Nc3ncccn3)cc2)cc(OC)c1OC
    >57	-0.8%
- COCCNC(=O)C(c1cccs1)N(C(=O)Cn1nnc2ccccc21)c1cccc(C(C)=O)c1 (centres undefined)
    >57	-0.4%
- Cc1ccc(C=NCc2ccncc2)c(O)c1
    >57	-7.1%
- O=C(Cn1nnc(-c2ccc(OCc3ccccc3F)cc2)n1)N1CCOCC1
    >57	5.2%
- O=C(CCCCCN1C(=O)c2ccccc2C1=O)NCc1ccccn1
    >57	-1.3%
- CC(=O)N1CCN(c2ccc(NC(=O)c3ccc(C(C)(C)C)cc3)cc2)CC1
    >57	10µM*
- c1ccc2c(c1)nnn2CN1CCOCC1
    >57	-4.1%[8 µM]
- CN(c1ccccc1C(=O)Nc1cccc(C(F)(F)F)c1)S(C)(=O)=O
    >57	0.3%
- CCOc1ccccc1NC(=O)NC1(C(=O)N2CCN3CCCC3C2)CCCCC1 (centres undefined)
    >57	-0.4%
- CC(=O)c1ccc(NS(=O)(=O)c2cccc(C)c2)cc1
    >57	.
- COc1ccccc1N1CCN(C(=O)C2C3C=CC4(CN(Cc5ccccc5Cl)C(=O)C24)O3)CC1 (centres undefined)
    >57	?
- Cc1csc(/C(=N\O)c2csc(C)n2)n1
    >57	-0.4%
- COCc1nnc(NC(=O)c2sc3ccccc3c2Cl)s1
    >57	12.7%
- CCOc1ccc(C2C=C(c3ccc(F)cc3)Nc3ncnn32)cc1 (centres undefined)
    >57	?
- CS(=O)(=O)N(CC(=O)NCC1CCCO1)c1cc(Cl)ccc1Cl (centres undefined)
    >57	-18.4%
- Cc1oc(-c2ccccc2F)nc1CN1CCC(C(=O)NC2CCCCCCC2)CC1
    >57	6.8%
- CC(C)c1ccc(NC(=O)C2CC(=O)N=C(N)S2)cc1 (centres undefined)
    >57	-1.9%
- N#Cc1nc(COc2cccc(Cl)c2)oc1NCc1ccco1
    >57	?
- CCN1CCN(S(=O)(=O)c2ccc3[nH]c(=O)oc3c2)CC1
    >57	5.8%
- CCCC[C@H](CC)CN=C(N)NC(N)=NCCCCCCN=C(N)NC(N)=NC[C@@H](CC)CCCC
    .	?
- CCO/C=C/C(=O)N(C)CCC#N
    >57	10.3%
- CCOC(=O)c1cccc(NC(=O)CSc2nc3ccccc3c(=O)n2CCOC)c1
    >57	?
- O=C(Nc1ccc(O)cc1)c1cc(S(=O)(=O)N2CCCC2)ccc1Cl
    .	-1.7%
- C=CCSc1nnc2c(n1)OC=Nc1ccc(Br)cc1-2
    >57	0.0%
- O=C(CC(c1ccc(F)cc1)c1ccco1)N1CCOCC1 (centres undefined)
    >57	1.6%
- Cc1ccc(S(=O)(=O)N2CCCC(NC(=O)N3CCN(c4ccccc4)CC3)C2)cc1 (centres undefined)
    >57	?

Look-ups from the list.
Cc1ccc(C=NCc2ccncc2)c(O)c1 | LT uptake inh = -7.1%
Cc1ccc(S(=O)(=O)N2CCCC(NC(=O)N3CCN(c4ccccc4)CC3)C2)cc1 (centres undefined) | Prx2 Sm inh = >57
COCCNC(=O)C(c1cccs1)N(C(=O)Cn1nnc2ccccc21)c1cccc(C(C)=O)c1 (centres undefined) | Prx2 Sm inh = >57
Cc1cc(N2CCN(S(=O)(=O)c3ccc(Cl)cc3)CC2)c2ccccc2n1 | LT uptake inh = 10µM*
O=C(Nc1ccc(O)cc1)c1cc(S(=O)(=O)N2CCCC2)ccc1Cl | LT uptake inh = -1.7%

Going on with the list.
Screens in order – Prx2 Sm inh	LT uptake inh
- Cc1ccc(C(OC(=O)c2ccco2)C(=O)NCc2cccs2)cc1 (centres undefined)
    >57	15.6%
- CCOc1ccc(OCC)c(NC(=O)c2[nH]c(C)c(C(C)=O)c2C)c1
    >57	-7.1%
- C[C@@H]1C[C@H](O)c2cc(Cl)ccc2N1
    >57	1.2%
- COCCCNC(=O)c1c(N)n(-c2cccc(S(N)(=O)=O)c2)c2nc3ccccc3nc12
    >57	?
- O=C(Cn1cc2c(n1)CCCC2)Nc1cc(-c2cccc(Cl)c2)no1
    >57	?
- Cc1cc(=O)n(CC(C)C)c(O)c1C#N
    >57	-0.7%
- CCC1CCc2c(sc3ncnc(N4CCOCC4)c23)C1 (centres undefined)
    >57	-9.8%
- CN(C)S(=O)(=O)CC12CCC(CC1=O)C2(C)C (centres undefined)
    >57	2.1%
- Cc1cc(C(=O)NCc2cccnc2)cs1
    >57	6.0%
- CCSc1nc2c(c(=O)[nH]1)C(c1ccncc1)C(C(=O)OC(C)C)=C(C)N2 (centres undefined)
    >57	9.2%
- COc1cc(OC)c(-c2nn3c(-c4ccco4)nnc3s2)cc1OC
    .	-4.2%
- CCCn1c(SCC(=O)Nc2cccc(NC(C)=O)c2)nnc1C(C)C
    >57	-7.8%
- CCc1nnc(NC(=O)C2Cc3ccccc3C(=O)O2)s1 (centres undefined)
    >57	-4.7%
- N#CC1=C(N)OC2=C(C(=O)CCC2)C1c1ccncc1 (centres undefined)
    >57	-6.5%
- COc1ccccc1N(CC(=O)Nc1cccnc1)S(C)(=O)=O
    >57	-7.8%
- CCOC(=O)/C(C(C)=O)=C1\OC(=O)c2ccccc21
    >57	-3.9%
- COc1cc(OC)c(NC2c3ccccc3C(=O)N2c2cc(C)ccn2)cc1Cl (centres undefined)
    >57	-9.6%
- COC(=O)c1c(N=CN(C)C)c(C#N)c2n1CCCC2
    >57	-0.4%
- O=C(NCCN1CCOCC1)c1cc(-c2ccc(O)cc2)on1
    >57	-4.1%
- C#C[C@@]1(OC(C)=O)CC[C@@H]2[C@@H]3CCC4=C[C@@H](OC(C)=O)CC[C@H]4[C@H]3CC[C@]21C
    >57	?
- CCOC(=O)Cn1nc(-c2ccc(Cl)cc2)ccc1=O
    >57	-10.7%
- Cc1cc(/C=N/n2cnnc2)c(C)n1-c1ccc(OCc2ccc(F)cc2)cc1
    >57	12.6µM*
- CCOC(=O)C1=C(N)n2c(s/c(=C\c3ccco3)c2=O)=C(C(=O)OCC)C1c1ccco1 (centres undefined)
    >57	-28.8%
- COC(=O)C1=C(C)OC(N)=C(C#N)C1c1cc(OC)ccc1OC (centres undefined)
    >57	4.6%
- COC(=O)C1=C(C)Nc2ncnn2C1c1ccc(OCc2ccccc2)cc1 (centres undefined)
    >57	12.5%
- O=C(NC(c1ccccc1)c1ccccc1)N1CCN(CCO)CC1
    >57	-11.4%
- Nc1ccc(S(=O)(=O)N2CCCc3ccccc32)cc1
    >57	?
